Screens: PubChem BioAssay, National Center for Advancing Translational Sciences (NCATS)
Sfp PPTase inh: Sfp phosphopantetheinyl transferase inhibition; Q9F4F7; Biochemical Sfp PPTase activity, qHTS; Potency, µM, inactives show max response, negative = inhibition, usual class: inhibitors; actives 3.5% (n = 310,000); active = well fitted inhibition curve with a large enough effect; inconclusive = small, poorly fitted or top-dose-only effect, or another doubt; inactive = no such curve, though single readings can be large or run the other way;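 note: the enzyme is Sfp with the accession as filed and its product quenches rhodamine fluorescence; potency is the fitted concentration of half-maximal effect; 0% = enzyme reaction without inhibitor and -100% = no enzyme wells; top concentration of the series not given in the record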
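Fluorescence-quenching assay: 15 nM Sfp-PPTase preincubated 15 min at room temperature with compound, then 5 uM rhodamine-CoA and 12.5 uM BHQ-2-labelled YbbR peptide added. Fluorescence (ex 525/em 598 nm) read at start and after 30 min; difference gives rate.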
D2 PAM: human D2 receptor positive allosteric modulation; P14416; DiscoveRx D2 beta-arrestin cells, luminescence, 90 min; 100% = 57 uM dopamine signal; potentiation, % (concentration not given with the values); actives 0.23% (n = 360,000); AID 624464; active = potentiation of 50% or more; inconclusive = 30% to 50%; inactive = 30% or less;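 note: compound concentration not given in the record; tested on top of an EC20 dose of dopamine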
Target sequence (P14416 whole entry, looked up): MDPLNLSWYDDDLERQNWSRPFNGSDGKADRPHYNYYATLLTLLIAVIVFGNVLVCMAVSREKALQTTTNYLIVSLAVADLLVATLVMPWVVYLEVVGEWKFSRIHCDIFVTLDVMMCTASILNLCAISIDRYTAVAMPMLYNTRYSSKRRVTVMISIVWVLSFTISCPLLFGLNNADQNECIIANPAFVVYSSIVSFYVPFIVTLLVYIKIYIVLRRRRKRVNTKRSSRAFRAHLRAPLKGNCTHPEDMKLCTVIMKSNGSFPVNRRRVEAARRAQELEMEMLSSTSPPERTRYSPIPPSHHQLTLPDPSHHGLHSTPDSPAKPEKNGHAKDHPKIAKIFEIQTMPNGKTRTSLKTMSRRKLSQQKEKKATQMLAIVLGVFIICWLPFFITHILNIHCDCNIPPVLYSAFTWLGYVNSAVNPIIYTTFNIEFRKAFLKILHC
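PathHunter beta-arrestin assay in DiscoveRx D2 cells. Compounds were added with an EC20 of dopamine (50 nM final) for 90 min at 37 deg C. Luminescence was read 1 h after detection reagent, with 57 uM dopamine as the EC100 control.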
D2 agonist: activates the human D2 dopamine receptor | activation, % (test concentration not listed) | AID 624465 | DiscoveRx PathHunter D2 beta-arrestin, luminescence, 90 min; 100% = 57 uM dopamine signal | P14416 | actives 0.084% (n = 360,000); in the data active = activation above about 40%; inconclusive = about 15% to 40%; inactive = below about 15%; note: compound concentration not given in the record; the text of the record calls up to 30% inactive
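DiscoveRx PathHunter D2 beta-arrestin cells (2,100/well) attached overnight, then compound-stimulated 90 min at 37 C in HBSS/10 mM HEPES/0.1% Tween-20 buffer; beta-galactosidase complementation read by luminescence after 1 h at ambient temperature. Dopamine 57 uM final (EC100) as control.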
CtBP-E1A blk: CtBP/E1A binding inhibition | AlphaScreen GST-E1A/His-CtBP binding, 1536-well; stronger effect = lower value; control for the full effect not named in the record | activity change, % (test concentration not listed) | actives 0.49% (n = 340,000) | AID 651724; in the data active means activity change below about -65%; inconclusive means about -30% to -65%; inactive means above about -30%; note: % is set by controls: 0 for no effect and ±100 for the full control effect; compound concentration not given in the record
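Steps: dispense buffer (Tris pH 8.0, NaCl 300 mM, TCEP 1 mM, BSA, Tween 20); add 5X protein mix (GST-E1A, His-CtBP, 125 nM each); pin 23 nL compound; 2 h at 37 °C, dark; add 5X beads (50 ug/mL); 1 h; read.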
PINK1 modulator: modulators of PINK1 expression; AID 624263; Potency, µM (highest dose often 76.6 µM), for inactives: at the top dose activation (PINK1 increase), actives largely listed as activators; actives 0.2% (n = 410,000); PINK1 immunofluorescence, high-content cytometry, 24 h; active = well fitted activation curve with a large enough effect; inconclusive = small, poorly fitted or top-dose-only effect; inactive = flat fitted curve, though single readings scatter; cell line not stated here;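 note: potency is the fitted concentration of half-maximal effect; % of control where 0% means no effect; nearly all actives have a fitted effect of over 65% in size; a mitochondrial uncoupler was the plate control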
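PINK1 protein, normally rapidly degraded, was detected by immunofluorescence after 24 hour compound treatment of a stable cell line. Titration data (5 concentrations) came from laser-scanning cytometry, with CCCP-treated wells as controls.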
TRPV1 PAM: potentiators of human vanilloid receptor 1 (TRPV1); Q8NER1; TRPV1-expressing cells, Fluo-8 calcium influx, capsaicin EC20 potentiation; host cell line not named in the record; control for the full effect not named in the record; potentiation, % at 8.33 µM; actives 0.02% (n = 320,000); AID 540277; active means potentiation above 80%; inconclusive means 30% to 80%; inactive means below 30%; note: 0% is about no effect
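Fluo-8 calcium influx in TRPV1-expressing cells, kinetic read (ex 480/em 520 nm). Compound added and read 3 min for agonist activity, followed by capsaicin at EC20 final and 2 min further read for enhancement.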
Six1-Eya2 inh: blocks human Six1 binding to Eya2. AID 651725. AlphaScreen GST-Six1/His-Eya2 binding, biochemical; stronger effect = lower value; control for the full effect not named in the record. Q15475+O00167. actives 0.56% (n = 360,000). activity change, % (no concentration beside the values); in the data active = activity change below about -65%; inconclusive = about -30% to -65%; inactive = above about -30%; note: % is set by controls: 0 for no effect and ±100 for the full control effect; compound concentration not given in the record
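AlphaScreen with GST-Six1 and His-Eya2 (5X mix: 250 nM and 500 nM), glutathione donor and nickel acceptor beads; buffer 50 mM Tris pH 8.0, 300 mM NaCl, 1 mM TCEP; 1 h at 37 C in the dark.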
Numbers without * were called inactive; ? = inconclusive; · = no result given; & = joins results of further samples; [ ] = remark or other dose.

SMILES	Sfp PPTase inh	D2 PAM	D2 agonist	CtBP-E1A blk	PINK1 modulator	TRPV1 PAM	Six1-Eya2 inh
COC(=O)C1=C(C(=O)OC)[C@@H]2N(C)c3ccccc3[C@@]23C[C@@H](CO)N(C(=O)c2cccs2)C3=N1	·	-14	-2.8	-23	-0.7%	·	1
COC(=O)C1=C(C)NC(=O)NC1C1CC=CCC1 (stereo not drawn)	9%	1	-1.7	7	4.3%[38.3 µM]	1	6
CCOc1ccc(-n2cc(C(=O)NCc3ccco3)c3cc(OC)c(OC)cc3c2=O)cc1	16%	-1	6.0	-1	4.4%	-24	-3
O=S1(=O)CCOC[C@H](CC2CCCCC2)N1Cc1ccccc1Br	10%	-12	-3.7	8	11%	-17	-3
O=C(NCCN1CCOCC1)c1cc(-c2ccc(Cl)cc2Cl)on1	9%	-7	-1.4	1	1.1%	-22	5
CC1CN(CC(O)COc2ccc(C#N)cc2)CCN1CC(O)COc1ccc(C#N)cc1 (stereo not drawn)	15%	-10	-0.4	-6	-0.2%	1	-1
O=C(Nc1nnc([C@H]2C[C@H](O)[C@@H](CO)O2)s1)Nc1ccccc1F	·	-7	-2.8	5	1.5%	·	3
COc1cc(OC)cc(-c2nn[nH]n2)c1	7%	-3	-2.6	7	1.6%	3	4
O=C(CSc1ncn[nH]1)Nc1nc2c(F)c(F)c(F)cc2s1	·	-4	-2.6	-4	1.5%	·	-7
CC1CC(=O)Nc2ccccc2N1C(=O)CN1C(=O)C(=O)N(C)C1=O (stereo not drawn)	·	-4	1.6	5	6.1%	·	1
O=C(CCS(=O)(=O)c1ccc(F)cc1)Nc1nnc(-c2ccco2)o1	·	2	-3.0	-14	2.6%	-9	-10
CSc1ccc(S(=O)(=O)N2CCC(C(=O)N3CCc4ccccc4C3)CC2)cc1	22%	-2	3.4	0	0.9%	21	-6
C/C(Cc1ccccc1)=N\NC(=O)CNC(=O)/C=C\c1ccccc1	4%	-5	0.0	4	0.7%	7	-2
COc1ccc(-c2ccc(SCC(=O)NC3CCCCC3)nn2)cc1	10%	-4	-7.4	6	-0.5%	-1	11
NC(=O)Nc1ccc(C(=O)OCC(=O)Nc2cccc(S(=O)(=O)NC3=NCCC3)c2)cc1	·	-1	5.7	1	1.1%	11	-1
CCOC(=O)N/N=C(/C)c1ccc(N2C(=O)C3CCCCC3C2=O)cc1 (stereo not drawn)	19%	5	7.5	·	1.4%	2	3
Cc1onc(-c2ccccc2Cl)c1C(=O)N1CCN(C(=O)c2ccco2)CC1	9%	10	-1.7	4	0.7%	-23	1
O=C(NC1CCCCC1)c1cc(-c2ccccn2)nc2ccccc12	24%	-9	-18	7	-1.0%	7	-2
CCOCCCNC(=O)C(NC(=O)c1ccccc1O)c1ccccc1 (stereo not drawn)	13%	-3	-0.2	18	-1.5%	2	6
O=C(CSc1nnc(COc2ccccc2)o1)N1CCCC1	18%	-5	2.4	1	3.5%	-3	9
COc1ccc(CN(C(=O)CNC(=O)c2ccco2)C(C(=O)NCC2CCCO2)c2ccccc2)cc1 (stereo not drawn)	15%	2	-1.6	0	-0.7%	-2	6
C/C(=N\Nc1ccc(C(=O)O)cc1)c1ccc(S(=O)(=O)NCc2ccco2)cc1	13%	-4	-3.8	0	1.7%	·	12
O=C(CSc1nc2cc([N+](=O)[O-])ccc2n1-c1ccccc1)NCc1ccc2c(c1)OCO2	1µM*	22	-0.2	1	11%	22	0
O=C(NCc1ccc(Cl)cc1)Nc1ccc(F)cc1	9%	-11	0.9	6	-0.2%	-5	3
CCCn1c(N2CCN(C(=O)N3CCCCC3)CC2)nc2ccccc21	-1%	-11	-1.1	0	0.8%	-33	7

Another view of part of the listing above:
| Structure | Sfp PPTase inh | D2 PAM | D2 agonist | CtBP-E1A blk | PINK1 modulator | TRPV1 PAM | Six1-Eya2 inh |
| --- | --- | --- | --- | --- | --- | --- | --- |
| CCOCCCNC(=O)C(NC(=O)c1ccccc1O)c1ccccc1 (stereo not drawn) | 13% | -3 | -0.2 | 18 | -1.5% | 2 | 6 |
| O=C(CSc1nnc(COc2ccccc2)o1)N1CCCC1 | 18% | -5 | 2.4 | 1 | 3.5% | -3 | 9 |
| COc1ccc(CN(C(=O)CNC(=O)c2ccco2)C(C(=O)NCC2CCCO2)c2ccccc2)cc1 (stereo not drawn) | 15% | 2 | -1.6 | 0 | -0.7% | -2 | 6 |

(next part)
SMILES	Sfp PPTase inh	D2 PAM	D2 agonist	CtBP-E1A blk	PINK1 modulator	TRPV1 PAM	Six1-Eya2 inh
COC(=O)c1c(C)[nH]c(C(=O)/C=C/c2ccccc2Cl)c1C	-28%	-11	-2.2	3	1.1%	-8	-2
CC(Oc1ccc(F)cc1)C(=O)Nc1sc2c(c1C(=O)NCc1cccnc1)CCCC2 (stereo not drawn)	-13%	-9	-2.3	-17	-1.2%	-11	?
FC(F)(F)C(Oc1nc(Nc2ccc(Cl)cc2)nc(N2CCOCC2)n1)C(F)(F)F	15%	-2	4.2	1	8.6%	4	12
Cc1cc(C(=O)OC2CCOC2=O)c2ccccc2n1 (stereo not drawn)	6%	-2	-0.7	-1	-0.8%[38.3 µM]	9	3
N#CC1=C(N)Oc2cc(N)ccc2C1c1ccc(Cl)cc1 (stereo not drawn)	-8%	-1	1.5	1	4.2%	9	-1
Cc1ccc(S(=O)(=O)N(C)CC(=O)Nc2nnc(CC(C)C)s2)cc1	-7%	6	2.7	2	0.2%	12	5
O=C(c1ccc(F)cc1)C(CN1CCOCC1)c1ccccc1 (stereo not drawn)	-10%	-32	-11	-12	-4.2%	0	9
CCCCCCN=CC1=C(O)C(C(=O)OC)C(C)(C)CC1=O (stereo not drawn)	10%	-6	2.8	-3	0.0%	9	17
Cn1c(N)c(C(=O)/C=C/c2ccccc2)c(=O)[nH]c1=O	50µM*	-2	-1.1	-13	0.2%	-26	-5
CCC(=O)N(C)C[C@@H]1Oc2ncc(Br)cc2C(=O)N([C@H](C)CO)C[C@H]1C	·	0	-1.2	-16	-0.9%	·	5
CCCc1cc(=O)[nH]c(SCCOC(=O)c2ccccc2)n1	-14%	-10	-1.6	-2	0.3%	9	11
Nc1c(C(=O)Nc2cccc(F)c2)nnn1-c1ccc2c(c1)OCCO2	4%	0	6.7	-4	?	-1	-2
COc1ccc(CCCc2nnc(SCC(=O)Nc3cccc(C)c3)o2)cc1	14%	4	0.6	10	-0.1%	6	3
CCC(C)NC(=O)CCn1c(-c2ccccc2)cc(C(C)=O)c1C (stereo not drawn)	0%	-13	-3.3	2	7.1%	-23	5
C=CC[C@@H](CC(=O)N[C@H](CO)Cc1ccccc1)C(=O)N[C@H](COC(=O)[C@H](CC=C)CC(=O)OC(C)(C)C)Cc1c[nH]c2ccccc12	·	-31	0.2	0	?	·	-13
Cn1cc(P(=O)(N2CCOCC2)N2CCOCC2)cc1P(=S)(N1CCOCC1)N1CCOCC1	20µM*	-5	-1.2	8	-0.4%	5	0
COc1cc2c(C(=O)O)c(C)n(CC(C)C)c2c2ccccc12	4%	-7	-2.4	-5	-2.5%	-13	-1
COc1ccc(OC)c(NC(=O)CSc2nnc(-c3ccncc3)s2)c1	1%	2	-1.2	-1	?	6	-3
CCCCNC(=O)Cn1nnc(-c2ccccc2)c1COc1ccc(C(C)=O)cc1	·	-13	-6.3	6	-0.5%	·	3
CCc1ccc2oc(-c3ccc(OC)cc3)cc(=Nc3cccc(C(=O)O)c3)c2c1	?	-19	-1.0	-16	-1.9%	-11	-1
CC(C)(C)CNC(=O)C1(C)CCN1C(=O)Cc1ccc(C(C)(C)C)cc1 (stereo not drawn)	·	-19	3.8	-14	4.9%	·	11
Cc1cnc(C(=O)NC(Cc2ccccc2)c2ccccc2)cn1 (stereo not drawn)	9%	-5	-1.4	6	4.1%	-7	11
CCOc1cc(N2CCOCC2)c(OCC)cc1NC(=O)CN1CCc2ccccc2C1	45µM*	-5	-2.9	?	-3.0%	-12	?
O=C1/C(=C/c2cccs2)Cc2ccccc21	7%	-26	-0.6	2	2.1%	-15	8
O=C(Nc1cccc(Cl)c1)N1CCCCCC1	8%	-3	1.5	5	1.5%	-8	-4
SMILES	Sfp PPTase inh	D2 PAM	D2 agonist	CtBP-E1A blk	PINK1 modulator	TRPV1 PAM	Six1-Eya2 inh
COc1ccccc1C(=O)N1CCN(S(=O)(=O)c2ccccc2)CC1	16%	1	6.6	-4	-1.5%	0	7
O=S(=O)(Nc1cccc(Oc2ccc(Cl)cc2)n1)c1ccc(F)cc1	23%	-4	5.0	-2	5.3%	11	1
Cc1cc(NC(=O)CN2CCN(C/C=C/c3ccccc3)CC2)c([N+](=O)[O-])cc1C	-22%	-19	-0.7	-7	6.1%	3	-4
Cc1noc(C)c1C(=O)OCC(=O)NC(=O)NC12CC3CC(CC(C3)C1)C2	-3%	-8	-3.8	4	0.2%	-5	15
O=[N+]([O-])c1ccccc1NC1CCN(Cc2ccccc2)CC1	19%	-19	-5.3	-25	-0.3%	-11	?
CCOC(=O)c1nn(-c2ccc3c(c2)OCO3)cc1O	-2%	-10	-0.2	-9	0.1%	-8	-13
CS(=O)(=O)N1CCc2cc(C(=O)N3CCOCC3)ccc21	21%	-12	0.4	5	-1.3%	-1	4
COc1ccc(OC(=O)/C=C/c2ccc([N+](=O)[O-])cc2)cc1	6%	6	0.8	-87*	0.8%	6	-20
CCN(CC)c1ccc(CNC23CN4CN(CN(C4)C2)C3)cc1	12%	-14	-0.7	-5	-1.4%	4	13
Cc1nn(-c2ccccc2)nc1-c1nnc(-c2ccc(C(F)(F)F)cc2)o1	9%	-3	-1.3	3	1.5%	-11	9
C[N+](C)(C)CCCCCC[N+](C)(C)C	19%&-9%&16%	-7	-5.4	0	1.9%	·	0
O=C(Nc1ccccc1)c1ccc2ccccc2n1	6%	-15	-3.6	9	0.3%	-5	14
O=C(CCN1CCN(c2ccccc2)CC1)NNC(=O)Cc1ccccc1Cl	·	-20	8.7	·	3.2%	-4	-1
O=C(CCC(=O)c1cccs1)NCc1ccc(Cl)cc1	0%	-2	-3.2	0	-0.7%	-5	-5
OC(CNCCc1ccc(C(F)(F)F)cc1)COC(c1ccccc1)c1ccccc1 (stereo not drawn)	56µM*	-10	-2.8	-7	-1.3%	-23	-25
CC(=O)C1=C(O)C(=O)N(c2ccc(O)cc2)C1c1ccc(C)cc1 (stereo not drawn)	1%	1	0.8	7	4.3%	2	3
Cc1nn(CC(=O)NCc2ccco2)c(C)c1[N+](=O)[O-]	3%	0	-3.5	1	0.2%	1	3
